# Screens (PubChem)
# Anthrax LT inh: qHTS Assay for Anthrax Lethal Toxin Internalization; Cells, anthrax lethal toxin internalization, FRET ratio (460/530); Potency, µM (highest dose often 40 µM), for inactives: top-dose activity change, negative = inhibition, hits mostly inhibitors; 70,000 compounds, 0.67% hits; active = well fitted falling ratio curve with the 530 nm signal flat; inconclusive = other ratio curves, or a change in one channel alone; inactive = flat curves in the ratio and both channels; the % refers to the ratio; also: % is scaled to controls: 0 for no effect and ±100 for the full control effect; nearly all actives have a fitted effect of over 50% in size; tested in ME-180 cells; beta-lactamase reporter
# SmPrx2 inh: Schistosoma Mansoni Peroxiredoxins (Prx2); S. mansoni Prx2 activity coupled to TGR/GSH (TGR is thioredoxin glutathione reductase), NADPH fluorescence loss, qHTS; some inactives read as strong as hits; 65,000 compounds, 0.07% hits; Potency, µM; Schistosoma mansoni peroxiredoxin 2 (Prx2); active means full or partial inhibition curve with a strong effect at the top dose; inconclusive means weaker partial or single-point curve; inactive means no accepted curve; also: series up to 57 µM; many of its hits are not listed in these tables
#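 Activity is read as the drop in NADPH fluorescence (365/450 nm), recorded every 30 sec for 8 min after H2O2 addition. Prx2 is coupled to TGR-driven NADPH oxidation through glutathione, in phosphate buffer pH 7.4.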
# The depositor's hits bear a star; u = inconclusive; x = not tested or not shown; & = joins results of further samples; [ ] = dose if it differs, or a comment. Potency is read from the fitted curve at half-maximal effect. Not all compounds are listed, so the mix of outcomes need not match the whole.
Compound	Anthrax LT inh	SmPrx2 inh
CCOC(=O)C1CCCN(C(=O)c2cc3nc(-c4cccc(OC)c4)cc(C(F)(F)F)n3n2)C1 (stereo not given)	u	>57
COC(=O)c1ccc(CSc2nc(-c3ccco3)cc(C(F)(F)F)n2)o1	u	>57
C=CCNC(=O)C1CCN(S(C)(=O)=O)CC1	-7.7%	>57
Cc1cccc(NC(=O)c2ccc(S(=O)(=O)N(C)C)cc2)n1	1.2%	>57
Cc1cc(=O)cc(C)n1-c1ccccc1N1CCOCC1	-10.7%	>57
CC1(C)CC(=O)C(/C=N/c2ncccc2C(=O)O)=C(O)C1	5.0%	>57
Cc1cc(C)c2c(CN3CCN(Cc4ccc5c(c4)OCO5)CC3)cc(=O)oc2c1	16.8%	>57
CCOc1ccc(/C=c2\sc3nc(-c4ccco4)nn3c2=O)cc1OCC	-7.1%	>57
O=C(NCC(=O)N1CCCC1C(=O)O)OC1CCCCC1 (stereo not given)	-0.7%	>57
Cc1[nH]c(=O)[nH]c(=O)c1S(=O)(=O)NCCOC12CC3CC(CC(C3)C1)C2	-2.9%	>57
Cc1cccc(Cl)c1OCCCCn1ccnc1	-13.1%	>57
Cc1nnc(SCC(=O)N2CCC(Cc3ccccc3)CC2)n(N)c1=O	-9.6%	>57
CCN(CC)C(=O)CSc1nc2sc(C)c(C)c2c(=O)[nH]1	-8.5%	>57
CCCS(=O)(=O)N1CCCC(C(=O)NCCN2CCOCC2)C1 (stereo not given)	u	>57
COc1cccc(-c2nccc(NCc3ccccc3)n2)c1	u	>57
O=C(CSc1nnc2scc(-c3ccccc3)n12)c1ccc2c(c1)OCCO2	4.9%	>57
Cc1cc(NC(=O)CSc2nnc(COc3cccc(C)c3C)n2Cc2ccco2)no1	-2.2%	>57
COc1ccc(CC(=O)NC(CC(=O)O)c2ccc(OC)cc2)cc1 (stereo not given)	1.1%	>57
Cc1ccc(OCC(=O)Nc2ccc3c(c2)nc2n3CCOC2)cc1	u	>57
O=S(=O)(NCCCN1CCN(c2ccccc2F)CC1)c1cccc2cccnc12	u	>57

# The listing continues.
Compound	Anthrax LT inh	SmPrx2 inh
CC[C@@H]1CN2CCc3cc(OC)c(OC)cc3[C@H]2C[C@@H]1C[C@H]1NCCc2cc(OC)c(OC)cc21	0.02µM*	>57&>57
CCCCCCCCCCCCCC(=O)O[C@H]1[C@@H](C)[C@@]2(O)[C@@H](C=C(CO)C[C@]3(O)C(=O)C(C)=C[C@@H]23)C2C(C)(C)[C@]21OC(C)=O (stereo not given in full)	u	>25.6
S=c1[nH]nc(C23CC4CC(CC(C4)C2)C3)n1Cc1ccco1	-10.8%	>57
COc1cccc(N2C(=O)CC(N3CCN(S(=O)(=O)c4ccccc4)CC3)C2=O)c1 (stereo not given)	-1.0%	>57
CSc1cccc(NC(=O)C2CCCN2S(=O)(=O)c2ccc3c(c2)CCC(=O)N3)c1 (stereo not given)	-1.8%	>57
COc1ccc(C)cc1S(=O)(=O)N1CCCCC1	12.7%	>57
COCCN(CCOC)c1nc(C)nc2c1nc(-c1ccccc1)n2CCN1CCCC1	-2.2%	x
Nc1c(C(=O)c2ccc(F)cc2)oc2ccccc12	x	>57
C=CCSC1=C(C#N)C(c2ccccc2OCC)C(C#N)C(=O)N1 (stereo not given)	-13.5%	>57
Cc1nnc(NC(=O)CSc2nnc(-c3ccc(S(=O)(=O)N4CCCC4)cc3)n2C)s1	19.9%	>57
COC(=O)C1(C#N)C(c2ccccc2)C1(C(=O)OC)C(=O)OC (stereo not given)	-6.2%	>57
COc1ccc(NC(=O)c2ccc(-n3nc(C)c[n+]3[O-])cc2)cc1	2.7%	>57
COc1ccccc1C(=O)n1nc(-c2ccccc2)nc1N	-8.0%	>57
O=C(C1CN(S(=O)(=O)c2ccccc2)CCN1S(=O)(=O)c1ccccc1)N1CCCCCC1 (stereo not given)	-6.1%	x
COc1ccccc1CC(NC(C)=O)C(=O)N1CCN(C(=O)Nc2ccccc2Cl)CC1 (stereo not given)	16.3%	>57
CCC1Oc2nc(SC)nnc2-c2ccccc2N1C(=O)c1ccccc1 (stereo not given)	-18.5%	x
O=C(c1ccco1)N1CCN(C(=O)C2CCCc3c2[nH]c2ccc(Cl)cc32)CC1 (stereo not given)	-10.5%	>57
CCn1c(=O)cc(OCC(=O)Nc2ccc(Cl)cn2)c2ccccc21	-7.2%	>57
CCOC(=O)c1ccc(NC(=O)c2nn(C)cc2Br)cc1	-3.0%	x
CCOC(=O)c1cc(CC)sc1NC(=O)CCC(=O)O	-11.0%	>57

# Next records
Compound	Anthrax LT inh	SmPrx2 inh
COc1ccc(-c2cc(C(=O)OC3CCOC3=O)c3ccccc3n2)cc1OC (stereo not given)	u	>57
COc1cc(C2c3c(n[nH]c3C)C(=O)N2c2ccc(C)cc2)ccc1O (stereo not given)	u	>57
O=C(O)c1cc2nc(-c3ccc(F)cc3)cc(C(F)(F)F)n2n1	1.4%	>57
CC(=O)Nc1ccc(N2CCN(C(C)=O)CC2)cc1	4.3%	>57
O=S(=O)(NCC(c1cccnc1)N1CCN(c2ccc(F)cc2)CC1)c1cccs1 (stereo not given)	-4.1%	>57
CCn1c(CSc2nc(C)cc(C)n2)nnc1SCC(=O)Nc1ccccc1	3.1%	>57
Cc1cc(C)n(-c2nc(SCC(=O)Nc3nccs3)c3c4c(sc3n2)COC(C)(C)C4)n1	-13.8%	>57
Cc1nc(N)sc1-c1csc(Nc2ccccn2)n1	u	x
CCOC(=O)c1cc2ccc(OC(=O)c3ccco3)cc2oc1=O	u	>57
Cc1cc(Nc2ccc(Br)cc2F)n2nc(C)nc2n1	-10.5%	>57
Cc1ccc(-n2c(C)cc(C(=O)CSc3nncs3)c2C)cc1	-12.1%	>57
CC(C)[C@@H](CC(=O)N[C@@H]1CCCC[C@H]1C(=O)N[C@H](CC(=O)N[C@@H](CCC(=O)O)CC(=O)O)Cc1ccccc1)NC(=O)C[C@H](Cc1ccccc1)NC(=O)[C@@H]1CNCC[C@H]1N	-9.6%	>57
COc1ccccc1OCCCn1c(=O)sc2ccccc21	2.4%	>57
Cc1c(C(Nc2ccccn2)c2ccc(Cl)cc2)c(=O)n(-c2ccccc2)n1C (stereo not given)	-9.2%	>57
CCOC(=O)c1cnc(-c2ccccc2)[nH]c1=O	-8.7%	>57
c1ccc2c(c1)ccc1nnc(-c3ccc4c(c3)OCO4)n12	u	>57
CN[C@H](CC(=O)O)C(=O)O	0.0%&1.8%	>57&>57
O=C(NCC1COc2ccccc2O1)c1ccc(Cl)cc1 (stereo not given)	-5.1%	>57
COc1ccc(Oc2c(-c3ccc(O)cc3O)n[nH]c2C)cc1	-2.1%	>57
O=C(NCc1cccnc1)C1CCCN(S(=O)(=O)c2ccccc2)C1 (stereo not given)	-4.7%	>57

# Complete entries, quoted from the list. Values in the order: Anthrax LT inh, SmPrx2 inh
# Cc1cc(Nc2ccc(Br)cc2F)n2nc(C)nc2n1 in the list: -10.5%, >57
# O=C(NCC1COc2ccccc2O1)c1ccc(Cl)cc1 (stereo not given) in the list: -5.1%, >57

# Additional entries
# Results follow in this order: Anthrax LT inh | SmPrx2 inh
Cn1c(=O)c2nc(Cl)n(Cc3ccc(Cl)cc3Cl)c2n(C)c1=O
→ -10.7% | >57
O=C(O)CCCC(=O)Nc1ccc(Cl)c(Cl)c1
→ 7.0% | x
CN(CCC#N)C(=O)COC(=O)c1ccc(Cl)c(S(N)(=O)=O)c1
→ 5.1% | >57
CCOC(=O)c1cc(-c2cccs2)nc2onc(C)c12
→ -8.8% | >57
CCOC(=O)C(C(=O)OCC)C(=O)c1cc(OC)c(OC)c(OC)c1
→ 10.9% | >57
CC(C)NC[C@H](O)COc1ccc(CC(N)=O)cc1
→ u | >57&>57&>57&>57&>57&>57&>57
CN(Cc1cc(=O)[nH]c2ccccc12)C(=O)c1ccccc1
→ -23.6% | >57
CCSc1nc2c(c(=O)[nH]c(=O)n2C)n1C/C=C(/C)Cl
→ 0.3% | >57
O=C(NCC(c1cccnc1)N1CCOCC1)C1CCCCC1 (stereo not given)
→ -12.3% | >57
Cc1cnc(NC(=O)CSc2nc3ccccc3c(=O)[nH]2)s1
→ 18.8% | >57
COc1cc(OC)nc(NC(=O)NS(=O)(=O)c2ccc(OC(F)(F)F)cc2)n1
→ -6.7% | >57
CCOc1ccc2nc(N3CCOCC3)nc(C)c2c1
→ u | >57
COC(=O)C1=C(N)Oc2cc(C)n(C)c(=O)c2C1c1ccc(Cl)c(Cl)c1 (stereo not given)
→ x | >57
Cc1cc(C)nc(Nc2nc(=O)c3ccccc3s2)n1
→ 10.1% | x
COC(=O)c1cc(Cl)c(NC(=O)c2ccco2)cc1OC
→ x | >57
CCOC(=O)Cc1nnc(NC(=O)c2ccccc2OCC)s1
→ -14.7% | >57
COCCNC(=O)COc1ccc(Nc2ccccc2)cc1
→ 2.0% | >57
O=C(NCc1ccco1)c1ccc(S(=O)(=O)N2CCCc3ccccc32)cc1
→ -15.8% | >57
CC1Cc2ccccc2N1C(=O)CCNS(=O)(=O)c1ccc2c(c1)CCC(=O)N2 (stereo not given)
→ 4.9% | >57
CCOC(=O)c1ccccc1NCN1C(=O)CSC1=O
→ 19.9% | x
COc1ccc2c(Cl)c(-c3nnco3)sc2c1
→ -2.0% | >57
CCn1c(SCC(=O)N2CCCC2)nc2c(c1=O)SC(C)C2 (stereo not given)
→ 18.0% | >57
CCCCOn1c(C)c(C(=O)OCC)c2c3no[n+]([O-])c3ccc21
→ 6.7% | >57
CS(=O)(=O)N(CC(=O)NCc1ccco1)c1ccc(Cl)c(C(F)(F)F)c1
→ -19.0% | x
COc1nc(Cl)nc(Cl)c1Cl (tested in a mixture with another compound)
→ -3.4%[8 µM] | >57
Cc1cc(C)c(-c2cc([C@H](C)O/N=C3/[C@H]4OC4[C@@H](O)[C@H]4[C@H]3CCn3c(=O)n(-c5ccccc5)c(=O)n34)on2)c(C)c1 (stereo not given in full)
→ 5.5%[8 µM] | x
CCOC(=O)N1CCN(CC(=O)c2ccc3c(c2)CCN3)CC1
→ u | >57
c1ccc2c(c1)CNc1ccccc1O2
→ -6.6% | >57
COc1cc(C2C(C(=O)Nc3ccc(F)cc3)=C(C)Nc3nc(CCCO)nn32)cc(OC)c1OC (stereo not given)
→ -17.7% | >57
COc1ccc(-c2nnc3ccc(SCC(=O)NCC4CCCO4)nn23)cc1 (stereo not given)
→ 1.8% | >57

# The last four compounds of the part above open the next one:
# Results follow in this order: Anthrax LT inh | SmPrx2 inh
CCOC(=O)N1CCN(CC(=O)c2ccc3c(c2)CCN3)CC1
→ u | >57
c1ccc2c(c1)CNc1ccccc1O2
→ -6.6% | >57
COc1cc(C2C(C(=O)Nc3ccc(F)cc3)=C(C)Nc3nc(CCCO)nn32)cc(OC)c1OC (stereo not given)
→ -17.7% | >57
COc1ccc(-c2nnc3ccc(SCC(=O)NCC4CCCO4)nn23)cc1 (stereo not given)
→ 1.8% | >57
Cc1ccc(S(=O)(=O)N2CCCC2C(=O)NC2=NCCS2)cc1 (stereo not given)
→ 9.3% | >57
COc1ccc(OC)c(S(=O)(=O)N2CCCCCC2)c1
→ 2.9% | >57
O=C(Nc1nc2c(ccc3ccccc32)s1)c1ccco1
→ u | >57
COc1cccc(/C=c2\sc3nc(-c4cccs4)nn3c2=O)c1OC
→ 8.3% | >57
[O-][n+]1onc2c1CCc1nnc(-c3ccccc3)cc1-2
→ 18.2% | >57
O=C(Nc1ccccc1)N1CCCC2(CCN(C(=O)Oc3ccccc3)CC2)C1
→ 14.4% | >57
COC(=O)c1ccc(CSc2nnc(-c3ccncc3)n2Cc2ccccc2)o1
→ -1.3% | >57
CC(=O)CC(=O)Nc1ccc2ccccc2c1
→ -0.8%[8 µM] | >57
Nc1c(C(=O)NCCN2CCOCC2)c2nc3ccccc3nc2n1-c1ccc2c(c1)OCO2
→ 23.8% | >57
CC1Oc2ccccc2N(CC(=O)NCCc2ccccc2)C1=O (stereo not given)
→ -12.7% | >57
Cc1cc(C(=O)COc2ncnc3sccc23)c(C)n1C1CC1
→ -6.2% | >57
O=C(Cn1cnc2c(nnn2Cc2ccc(Cl)cc2)c1=O)NCc1ccco1
→ -11.2% | >57
CC(C)C(c1nnnn1Cc1ccccc1)N(Cc1ccco1)Cc1cccs1 (stereo not given)
→ u | >57
O=c1c(CCc2ccccc2)nc2cnc(N3CCOCC3)nc2n1Cc1ccc(F)cc1
→ u | >57
OCCN[C@@H]1c2cc(Cl)ccc2-c2c(Cl)cc(Cl)cc21
→ -8.7%[8 µM] | >57
O=C1CC[C@H](NC(=O)c2ccccc2)C(=O)N1
→ 3.3%[8 µM] | >57
O=C(Nc1ncccc1O)c1cccc(S(=O)(=O)N2CCc3ccccc32)c1
→ -8.2% | >57
CCCOC(=O)C1[C@H]2C(=O)N(CC3CCCO3)C[C@]23C=C[C@H]1O3 (stereo not given in full)
→ u | >57
O=C1NCCNC1(c1c[nH]c2ccccc12)C(F)(F)F (stereo not given)
→ -4.2% | >57
CC(Sc1sc(=S)sc1SC(C)C(=O)O)C(=O)O (stereo not given)
→ -6.2% | >57
CCCn1c(C)nc2c(NCCN3CCOCC3)nc(C)nc21
→ 0.3% | x
CCOc1ccc(NC(=O)CSc2nnc(-c3ccncc3)n2CC2CCCO2)cc1 (stereo not given)
→ 9.3% | >57
